H5N1 antiviral – MDCK cell protection from H5N1 avian flu. cytopathic effect, luminescence, 72 h; hits give high values; no value below 0 was filed and about half of the inactive calls have no number; reference of the scale not given here. inhibition, % at 50 µM. 96,000 compounds, 0.07% hits. AID 740, 2007; in the data active means inhibition above about 25%
* marks the source's active call; other numbers are inactive results; i = inactive.

SMILES	H5N1 antiviral
Nc1nnc(SCCN2C(=O)c3ccccc3C2=O)s1	i
CCn1c(SCC(=O)N/N=C/c2ccc(OC)c(OC)c2)nc2ccccc21	0.4
COc1ccc(S(=O)(=O)Nc2ccc(CC#N)cc2)cc1	i
Cn1c(=O)c2c(nc(SCC(=O)NCC3CCCO3)n2C)n(C)c1=O (configuration not stated)	1.9
CCCC(=O)NCc1cc(-c2nn(C)c(=O)c3ccccc23)ccc1C	i
Cc1ccc2nc3ccc(N4CCCC4)nn3c(=O)c2c1	0.1
NC(=O)CSc1nc(O)cc(=O)n1-c1ccccc1	0.6
C/C(CC(=O)NC1CCCC1)=N\NC(=O)Cc1cccs1	0.5
CC1CCc2[nH]nc(C(=O)O)c2C1 (configuration not stated)	i
Oc1cccc(-c2nc3c4c(ncn3n2)-c2ccccc2CC42CCCC2)c1	i
Cc1ccc(C(=O)C2CN3CCC2CC3)cc1 (configuration not stated)	i
CN(C)CCNS(=O)(=O)c1ccc(Cl)cc1	0.3
COc1cc(C2CC(=O)NC3=C2C(=O)CC(C)(C)C3)cc(OC)c1O (configuration not stated)	i
CC1=NN(c2ccccc2)C(=O)C1/C=C1\C(=O)NC(=O)N(c2ccc(C)c(C)c2)C1=O (configuration not stated)	i
COc1cc(SC)ccc1C(=O)Nc1ccccc1C#N	1.1
O=C(Cn1c(C(F)(F)F)nc2ccccc21)N1CCCC1	i
Cc1ccc(C)c(N2CCN(c3nnnn3-c3ccccc3)CC2)c1	0.2
CC(NS(=O)(=O)c1cccc(Cl)c1)C(=O)Nc1ccc(-c2nc3ccccc3s2)cc1 (configuration not stated)	i
COC(=O)c1ccc2c(=O)n(CCCCCC(=O)N3CCN(c4ccccc4)CC3)c(=O)[nH]c2c1	8.0
Cc1ccc(S(=O)(=O)Nc2ccc(=O)n(Cc3ccc(Cl)c(Cl)c3)c2)cc1	i
COc1ccc(CCn2c(-c3ccco3)nc3nc4ccccc4nc32)cc1	0.5
C=CCn1c(NCc2ccc(N(C)C)cc2)nc2ccccc21	i
O=C(Nc1ccc2oc(-c3ccc(F)cc3)nc2c1)c1ccccc1F	i
Cc1c(NC(=O)Cn2[nH]c(=O)c3ccccc3c2=O)c(=O)n(-c2ccccc2)n1C	i
COC(=O)CSc1nc2ccccc2o1	0.1
Cc1ccc(OCCCC(=O)Nc2ccccc2C(F)(F)F)cc1	i
CCCC(=O)O[C@H]1C[C@@H](C)N(C(=O)c2ccccc2)c2ccc(C)cc21	1.0
Cc1ccccc1N(CC(=O)NC1CCCC1)C(=O)c1oc(C(C)(C)C)cc1C	2.0
Cc1sc2nc(CN3CCOCC3)nc(NS(=O)(=O)c3ccc4c(c3)OCCO4)c2c1C	i
O=C(CCOc1ccccc1)Nc1ccc(S(=O)(=O)N2CCCC2)cc1	i
COC(=O)Cn1c(=N)n(CCN2CCCCC2)c2ccccc21	0.3
Cc1ccc(CNC(=O)C2CCCN(S(C)(=O)=O)C2)cc1 (configuration not stated)	0.5
CC1(C(=O)NC2CCCCCCC2)CCC(=O)N1Cc1cccnc1 (configuration not stated)	i
Cc1noc(C(=O)N2CCN(c3ccc(F)cc3)CC2)c1Cl	i
CC(C(=O)Nc1cccnc1)N1C(=O)C2C3C=CC(C3)C2C1=O (configuration not stated)	0.4
CC(C)OCCCn1c(=S)[nH]c2ccc(N3CCOCC3)cc2c1=O	8.8
O=C(CSc1nnc(-c2ccccc2)o1)Nc1ccccc1F	i
COc1ccc(CCNC(=O)C2CCN(S(=O)(=O)N3CCCCCC3)CC2)cc1OC	1.4
CCOC(=O)c1c(C)nc2c(c1-c1ccccc1)C(=O)c1ccccc1-2	i
O=C(/C=C/c1ccccc1Cl)NCCc1ccccc1	0.8
CCN(CC)CCCN(C(=O)c1cccs1)c1nc(-c2ccc(OC)cc2)cs1	i
Cc1ccc(NC(=S)NCc2cccs2)cc1	0.5
Cc1occc1-c1nnc(SCC(N)=O)n1Cc1ccccc1	2.4
COc1cc(/C=N/n2cnnc2)ccc1OCCSc1ccc(C)cc1	i
COc1ccc(-c2sc(NC(=O)c3ccc(C)cc3)nc2-c2ccc([N+](=O)[O-])cc2)cc1	i
CCOc1ccc(NC(=O)CN2CCN(CC(=O)c3ccc(OC)c(OC)c3)CC2)cc1	i
COc1cccc(-n2nnc3c(=O)n(Cc4ccc(Cl)cc4)cnc32)c1	0.5
CC(NC(=O)CN1C(=O)COc2ccccc21)c1ccccc1 (configuration not stated)	0.1
Nc1ccc2oc(-c3cccs3)nc2c1	i
Cc1cc(C(F)(F)F)n2nc(-c3cnn(C)c3C(F)(F)F)cc2n1	0.0
COc1cccc(C(=O)CSc2nnc(COc3cccc4cccnc34)o2)c1	0.4
CCOC(=O)N1CCN(c2c(N3CCc4ccccc4C3)c(=O)c2=O)CC1	0.2
COCCCn1c(N)c(C(=O)Nc2sc3c(c2C(=O)OC)CCCC3)c2nc3ccccc3nc21	i
Cc1ccc(-n2nc3c(c2NC(=O)c2ccc(S(=O)(=O)N4CCOCC4)cc2)CSC3)c(C)c1	i
CC(C)Nc1nc(Oc2cccc(Cl)c2Cl)cc(C(F)(F)F)n1	i
NC(=O)c1ccc(Br)c(S(=O)(=O)N2CCCCC2)c1	i
N#Cc1c(-c2ccccc2)cc(C2CC2)nc1N	i
Nc1nc(SCC(=O)N2CCCC2)[nH]c(=O)c1-c1ccccc1	i
COc1ccc(C(=O)NCCN2CCCC2)cc1OC	0.3
CCCOc1ccc(C(C)(O)CN2CCOCC2)cc1 (configuration not stated)	0.2

Next records:
SMILES	H5N1 antiviral
CC1(C)CC(CCNC(=O)c2ccco2)CC(C)(C)N1	i
CCOC(=O)C1CCN(C(=O)CN(Cc2ccccc2)S(C)(=O)=O)CC1	i
CCOC(=O)Cn1cnc2c(C#N)c3n(c2c1=O)CCCCC3	1.3
COc1c(C)cc(Br)cc1C(=O)O	0.2
c1ccc(Cn2c(SCc3cn4cccnc4n3)nnc2-c2ccco2)cc1	i
CCOC(=O)C1CCN(S(=O)(=O)C(F)(F)c2nc3ccccc3s2)CC1	i
CC(NC(=O)Cn1c(=O)oc2cc(S(=O)(=O)N3CCCC3)ccc21)c1ccccc1 (configuration not stated)	0.5
Cc1cc(NC(=O)CN2CCCCCCC2)no1	1.8
CCCCOc1ccccc1C(=O)NCCCCCC(=O)O	i
CN(Cc1ccccc1)C1CC(=O)N(c2ccc(C(=O)O)cc2)C1=O (configuration not stated)	0.6
O=C(CN(C(=O)CCC(=O)Nc1nccs1)c1cccc(F)c1)NCC1CCCO1 (configuration not stated)	i
COC(=O)c1c(/N=C/N(C)C)sc2c1CCN(c1ncc(C(F)(F)F)cc1Cl)C2	6.3
CC1CCN(S(=O)(=O)c2ccc(Oc3ccc([N+](=O)[O-])cc3)cc2)CC1	6.4
CC(C)CN=c1cc(-c2ccccc2)oc2ccc(Cl)cc12	i
O=C(Cn1cnc2ccccc2c1=O)N1CCOCC1	0.3
Cn1ccnc1SCC(=O)Nc1sccc1C#N	i
CCCn1c(SCC(=O)Nc2nccs2)nnc1-c1cccnc1	0.2
O=C(NC1CCS(=O)(=O)C1)c1ccc(-c2ccc(Br)cc2)o1 (configuration not stated)	0.1
Fc1ccc(Cn2nnnc2C(c2cccs2)N2CCCCCC2)cc1 (configuration not stated)	3.6
COc1nc(NCCC2=CCCCC2)nc(OC)n1	0.5
NC1=NC(=Nc2ccccc2)c2ccccc21	i
O=C(CCCOc1ccc(Cl)cc1)N1CCCCCC1	1.2
S=c1[nH]nc(-c2ccncc2)n1Cc1ccccc1	3.7
CC(=O)Oc1ccc(N(C(C)=O)S(=O)(=O)c2cccs2)cc1	0.2
Cc1ccc(CN2CCN(c3ccccn3)CC2)s1	i
O=C(CCCCCn1c(=S)[nH]c2ccccc2c1=O)NCc1ccc2c(c1)OCO2	0.4
COc1ccc(N2CCN(C(=O)CCCOc3cc(=O)n(C)c4ccccc34)CC2)cc1	2.0
CCOc1ccc2cc(S(=O)(=O)N3CCN(C)CC3)ccc2c1	0.9
COc1ccc(CNC(=O)c2c(O)c3ccccc3n(C)c2=O)cc1OC	i
CN(Cc1nc(-c2cccnc2)no1)S(=O)(=O)c1ccc(Br)cc1	i
COc1ccc(CCNC(=O)CN(C)S(=O)(=O)c2ccc3c(c2)CCC(=O)N3)cc1OC	0.2
Clc1ccc2nc(CN3CCCCC3)cn2c1	0.5
COC(C)(C)c1cc(C(C)(C)C)nc(N)n1	0.5
COc1ccccc1CC(=O)NCc1ccc2c(c1)OCO2	0.3
COc1ccccc1OCCNC(=O)c1ccc(S(=O)(=O)N(C)C)cc1	2.0
COc1ccc(-c2nc3c(Br)c(N)c(Br)cc3o2)cc1	i
Cc1cc(=O)n2c3c(sc2n1)C(=O)N(Cc1ccccc1)C3=O	0.7
CCC1CCCCN1S(=O)(=O)c1ccc(S(=O)(=O)N(Cc2cccs2)C2CC2)cc1 (configuration not stated)	6.3
O=C(CN1C(=O)C2CCc3[nH]c4ccccc4c3C2C1=O)N1CCCC1 (configuration not stated)	i
OCC1CCCN1C(=S)Nc1ccccc1 (configuration not stated)	0.2
CN1/C(=C\C(=O)c2ccco2)c2ccccc2CC1(C)C	0.9
O=C(Nc1ccccc1)N1CCC(n2c(=O)[nH]c3ccccc32)CC1	1.6
CCN(CC)CCCNC(=O)C1c2ccccc2Oc2ccccc21	i
CCCCN(C)C(=O)c1ccc(S(=O)(=O)N2CCOCC2)cc1	i
Cc1ccc(/C=N/NC(=O)c2sccc2OCc2ccc(F)cc2)cc1	i
O=C(Cn1cc(C(F)(F)F)ccc1=O)N1CCN(S(=O)(=O)c2ccc(Cl)cc2)CC1	1.3
COC(=O)c1ccccc1NC(=O)c1cc2sccc2n1C	i
O=C(Nc1ccc(N2CCOCC2)c(C(=O)O)c1)c1ccco1	i

Filtered by structure: those above containing a COOH group
SMILES	H5N1 antiviral
CC1CCc2[nH]nc(C(=O)O)c2C1 (configuration not stated)	i
COc1c(C)cc(Br)cc1C(=O)O	0.2
CCCCOc1ccccc1C(=O)NCCCCCC(=O)O	i
CN(Cc1ccccc1)C1CC(=O)N(c2ccc(C(=O)O)cc2)C1=O (configuration not stated)	0.6
O=C(Nc1ccc(N2CCOCC2)c(C(=O)O)c1)c1ccco1	i

7 consecutive entries from above, quoted:
SMILES	H5N1 antiviral
Cc1cc(=O)n2c3c(sc2n1)C(=O)N(Cc1ccccc1)C3=O	0.7
CCC1CCCCN1S(=O)(=O)c1ccc(S(=O)(=O)N(Cc2cccs2)C2CC2)cc1 (configuration not stated)	6.3
O=C(CN1C(=O)C2CCc3[nH]c4ccccc4c3C2C1=O)N1CCCC1 (configuration not stated)	i
OCC1CCCN1C(=S)Nc1ccccc1 (configuration not stated)	0.2
CN1/C(=C\C(=O)c2ccco2)c2ccccc2CC1(C)C	0.9
O=C(Nc1ccccc1)N1CCC(n2c(=O)[nH]c3ccccc32)CC1	1.6
CCN(CC)CCCNC(=O)C1c2ccccc2Oc2ccccc21	i

Additional compounds
SMILES	H5N1 antiviral
COc1ccc(Br)cc1C(=O)Nc1ccccc1-c1ccccc1	i
COc1ccc(OC)c(C2C(C(=O)Nc3nc4ccccc4s3)=C(C)NC3=C2C(=O)CCC3)c1 (configuration not stated)	5.1
CC1(C)CC(=O)C2=C(C1)N(Cc1cccnc1)C(=O)C2(NC(=O)c1ccc(F)cc1)C(F)(F)F (configuration not stated)	0.1
CC1CCN(CCCNC(=O)COc2cc(=O)n(C)c3ccccc23)CC1	0.6
CC(C)CCn1nnnc1C(c1ccc(F)cc1)N1CCC(C(N)=O)CC1 (configuration not stated)	i
Cc1nc(-c2cccnc2)sc1C(=O)Nc1cccc(C(F)(F)F)c1	i
O=C(NC1CC2CCC1C2)C1CCN(S(=O)(=O)c2ccc(-c3nn[nH]n3)cc2)CC1 (configuration not stated)	0.3
COC(=O)c1c(C)[nH]c(C(=O)CSc2nnnn2-c2ccccc2)c1C	0.6
COc1ccc(OC)c(C(=O)C2COC(=O)C2)c1 (configuration not stated)	2.8
Cc1ccc(N2OC3C(=O)NC(=O)C3C2c2ccco2)cc1 (configuration not stated)	i
COc1cccc(NC(=O)c2cccc(OC)c2OC)c1	0.1
O=C(Nc1nnc(N2CCCCCC2)s1)c1cc(-c2ccc(Br)cc2)on1	0.8

A second format for some results above:
> CC1(C)CC(=O)C2=C(C1)N(Cc1cccnc1)C(=O)C2(NC(=O)c1ccc(F)cc1)C(F)(F)F (configuration not stated)
  H5N1 antiviral = 0.1
> CC1CCN(CCCNC(=O)COc2cc(=O)n(C)c3ccccc23)CC1
  H5N1 antiviral = 0.6

Returning to the listing; the 2 compounds before the break are reprinted first.
SMILES	H5N1 antiviral
COc1cccc(NC(=O)c2cccc(OC)c2OC)c1	0.1
O=C(Nc1nnc(N2CCCCCC2)s1)c1cc(-c2ccc(Br)cc2)on1	0.8
COc1ccc(NC(=O)CC2Oc3ccc(C)cc3NC2=O)cc1 (configuration not stated)	0.7
O=C(Cn1cnc2c(oc3ccccc32)c1=O)NCC1CCCO1 (configuration not stated)	i
O=C(Cc1coc2ccc3ccccc3c12)N1CCc2ccccc21	i
COc1ccc(OCC(=O)Nc2cccc(-c3nc4ccccc4o3)c2)cc1	0.1
CN(C)c1cccc(C(=O)Nc2ccc(N3CCOCC3)cc2)c1	i
Cc1cc(C(F)(F)F)c2c(n1)sc1c(O)cc(=O)[nH]c12	1.1
Cc1cccc(C(=O)NC(NCCc2ccccc2)C(Cl)(Cl)Cl)c1 (configuration not stated)	0.1
COC(=O)COc1ccc(/C=C2/SC(=O)N(CC(=O)N3CCCC3)C2=O)cc1Br	i
CC(C)(C)n1ncc2c(=O)n(Cc3c(F)cccc3Cl)cnc21	i
Cc1c(NC(=O)c2cc(=O)[nH]c(=O)[nH]2)c(=O)n(-c2ccccc2)n1C	i
Cc1ccc2[nH]c(=O)c3cc(C(=O)NCCN4CCN(C)CC4)sc3c2c1	2.9
O=C(COC(=O)c1ccc(N2CCCC2=O)cc1)NCc1ccco1	0.7
CCOc1ccc(Cn2nnc(C(=O)NCCc3ccccc3)c2N)cc1	i
O=c1cc(-c2ccc3c(c2)OCO3)oc2ccccc12	0.8
COC(=O)c1ccc(C2c3c(oc4ccccc4c3=O)C(=O)N2CCCN2CCOCC2)cc1 (configuration not stated)	0.9

High-throughput results (PubChem BioAssay)

Only part of the results is shown. The share of hits here may be higher or lower than overall.
